Source: PubChem BioAssay
TRPML1 ag – agonists of human TRPML1 channel | TRPML1-expressing cells, Ca2+ dye fluorescence, FDSS; host cell line not named in the record; reference of the full effect not given here | Q9GZU1 | hit rate 0.12% among 410,000 | AID 624414 | activation, % (test concentration not listed); in the data active = activation above about 50%; inconclusive = about 30% to 50%; inactive = below about 30%; also: 0% is about no effect; the text of the record puts the active cut at 80%
Target sequence (Q9GZU1 whole entry, looked up): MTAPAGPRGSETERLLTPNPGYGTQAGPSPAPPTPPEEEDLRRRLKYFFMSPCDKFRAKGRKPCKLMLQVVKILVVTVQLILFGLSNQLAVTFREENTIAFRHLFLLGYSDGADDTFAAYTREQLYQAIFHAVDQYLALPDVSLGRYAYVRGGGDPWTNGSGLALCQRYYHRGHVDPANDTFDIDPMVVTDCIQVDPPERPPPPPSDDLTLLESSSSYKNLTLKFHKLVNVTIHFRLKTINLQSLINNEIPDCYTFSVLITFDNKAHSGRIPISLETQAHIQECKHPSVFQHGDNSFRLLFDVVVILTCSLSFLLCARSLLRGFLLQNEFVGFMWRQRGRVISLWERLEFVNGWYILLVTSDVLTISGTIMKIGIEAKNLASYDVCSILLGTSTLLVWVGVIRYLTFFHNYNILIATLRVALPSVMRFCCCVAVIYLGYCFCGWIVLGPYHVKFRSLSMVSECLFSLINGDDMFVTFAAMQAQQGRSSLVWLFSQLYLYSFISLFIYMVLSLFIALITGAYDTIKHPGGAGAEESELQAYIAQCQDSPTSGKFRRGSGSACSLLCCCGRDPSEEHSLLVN
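Calcium fluorescence on an FDSS kinetic reader gave the read-out. Tet-induced TRPML1-DL cells were plated overnight, dye-loaded (Ca8 with quencher, 45-90 min, room temperature, dark), then read 110 s after compound addition, and again 110 s after 4uM final 54-4 (EC80).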
TRPML1 inh – inhibitors of human TRPML1 channel | AID 624415 | Q9GZU1 | hit rate 0.02% among 390,000 | TRPML1-inducible cells, Ca2+ dye fluorescence, FDSS; stronger effect = lower value; inhibition of EC80 agonist-evoked calcium signal | activity change, negative = inhibition, % (test concentration not listed); in the data active means activity change below about -50%; inconclusive means about -30% to -50%; inactive means above about -30%;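 also: stimulus is agonist 54-4 at its EC80 concentration; % is scaled to controls: 0 for no effect and ±100 for the full control effect; compound concentration not given in the record; the text of the record puts the active cut at -80%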
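Calcium fluorescence in TRPML1-DL cells induced overnight with Tet: a 110 s read after compound pin addition, then a 110 s antagonist read after challenge with 54-4 at 4 uM final (EC80).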
Sfp inh – Sfp phosphopantetheinyl transferase inhibition. Biochemical Sfp PPTase activity, qHTS. Potency, µM, without a hit: max response, negative = inhibition, usual class: inhibitors. hit rate 3.5% among 310,000. AID 1490; active = well fitted inhibition curve with a large enough effect; inconclusive = small, poorly fitted or top-dose-only effect, or another doubt; inactive = no such curve, though single readings can be large or run the other way;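 also: the enzyme is Sfp with the accession as filed and its product quenches rhodamine fluorescence; potency is read from the fitted curve at half-maximal effect; 0% = enzyme reaction without inhibitor and -100% = no enzyme wells; top concentration of the series not given in the record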
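With Hepes-Na pH 7.6 buffer containing 10 mM MgCl2, Sfp (15 nM) modified BHQ-2-YbbR (12.5 uM) using rhodamine-CoA (5 uM). Two reads 30 minutes apart at 525/598 nm yielded each well's rate.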
Menin MLL FP FL – inhibitors of human menin-MLL interaction, wild-type MLL peptide; Fluorescence polarization, fluorescein-MLL peptide displacement from menin; FP activity change, % at 61.4 µM; 290,000 tested, under 10 active; AID 1766; inconclusive = falling polarisation curve, or a change in total fluorescence; inactive = total fluorescence flat and polarisation flat or rising; no compound was filed as active; the % refers to the polarisation; negative = inhibition;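 also: % of control where 0% means no effect; inhibitors lower the polarisation; unlabelled MLL peptide was the positive control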
ClpP mod – qHTS Assay for Activators of ClpP. ATP-dependent Clp protease proteolytic subunit (Bacillus subtilis (strain 168)), P80244. purified B. subtilis ClpP, FRET peptide cleavage, 20 min. Potency, µM (titrated, usually from 57.5 µM), inactives show at the highest dose activity change, negative = active. hit rate 1.9% among 340,000; active = well fitted falling curve with a large enough effect; inconclusive = small, poorly fitted or top-dose-only effect; inactive = no such curve, though single readings can be large or run the other way; also: potency is read from the fitted curve at half-maximal effect; the source files actives as falling curves though it sought activators and does not explain the sign; nearly all actives have a fitted effect of over 65% in size; many hits overshoot -100%
Target sequence (P80244 whole entry, looked up): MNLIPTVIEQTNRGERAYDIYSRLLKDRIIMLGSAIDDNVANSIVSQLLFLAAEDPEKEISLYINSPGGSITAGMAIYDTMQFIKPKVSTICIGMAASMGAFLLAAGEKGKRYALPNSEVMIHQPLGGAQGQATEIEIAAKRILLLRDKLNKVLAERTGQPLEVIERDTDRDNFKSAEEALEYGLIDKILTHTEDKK
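Buffer: 100 mM Tris/HCl pH8, 100 mM KCl, 0.05% low protease BSA, 2.5% glycerol, 0.01% Tween-20. ClpP 10 microg/mL final; 20 min RT; delta FRET normalized to ADEP and DMSO controls.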
PINK1 modulator – changes PINK1 expression; PINK1 immunofluorescence, high-content cytometry, 24 h; AID 624263; Potency, µM (titrated, usually from 76.6 µM), for inactives: top-dose activation (PINK1 increase), most hits filed as activators; hit rate 0.2% among 410,000; active = well fitted activation curve with a large enough effect; inconclusive = small, poorly fitted or top-dose-only effect; inactive = flat fitted curve, though single readings scatter; cell line not stated here;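 also: potency is read from the fitted curve at half-maximal effect; % of control where 0% means no effect; nearly all actives have a fitted effect of over 65% in size; a mitochondrial uncoupler was the plate control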
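Fluorescence from anti-PINK1 antibody, together with nuclear and cell stains, was scanned on a laser-scanning cytometer. Before staining, stable-line cells were incubated 24 hours with compounds at 5 concentrations; primary antibody 12 h at 10 degrees C.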
TRPV1 PAM – human TRPV1 potentiation | TRPV1-expressing cells, Fluo-8 calcium influx, capsaicin EC20 potentiation; host cell line not named in the record; control for the full effect not named in the record | potentiation, % at 8.33 µM | hit rate 0.02% among 320,000 | AID 540277; active means potentiation above 80%; inconclusive means 30% to 80%; inactive means below 30%; also: 0% is about no effect
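Cells expressing TRPV1 were dye-loaded with Fluo-8 and read kinetically: 10 s baseline, 3 min after compound (agonist portion), then 2 min after EC20 capsaicin (allosteric enhancer portion). Calcium-bound dye fluorescence at 480/520 nm.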
* marks the source's active call; other numbers are inactive results; ? = inconclusive; · = no result given; [ ] = remark or other dose. Rows were taken by chance. Share with any hit: about 4.4%.

SMILES	TRPML1 ag	TRPML1 inh	Sfp inh	Menin MLL FP FL	ClpP mod	PINK1 modulator	TRPV1 PAM
COc1ccc2nc(NCCCNC(=O)c3cc(OC)c(OC)c(OC)c3)c(C#N)cc2c1	2.1	-1	15%	-26	-19%	1.3%	2
CC(C)OCCCNC(=O)CNC(=O)c1ccc(Cl)c(Cl)c1	-0.1	-5	23%	-4.2	·	0.4%	-1
C[C@H](CO)N1C[C@H](C)[C@@H](CN(C)C(=O)Nc2ccc(C(F)(F)F)cc2)Oc2c(NC(=O)Cc3ccccc3)cccc2C1=O	0.2	0	·	·	-2.2%	5.6%	·
O=C(NCc1ccccc1)c1cccn1-c1nnc(N2CCCC2)s1	0.7	11	·	·	-1.3%	-1.0%	·
Brc1ccc(N=C(c2ccccc2)c2ccncc2)cc1	-0.4	-12	13%	-4.9	1.7%	1.3%	5
COc1ccccc1N1CCN(C(=O)COc2cc(C)ccc2C)CC1	0.0	0	-7%	10	?	3.3%	1
CCCCCn1c(N2CCN(c3cccc(Cl)c3)CC2)nc2c1c(=O)[nH]c(=O)n2C	-1.0	30	-7%	4.2	0.4%	-0.3%	·
Cc1cccc(Cn2cc(S(=O)(=O)c3ccccc3)c(=O)c3cc(F)c(N4CCOCC4)cc32)c1	-0.2	4	·	·	?	0.1%	·
CC(C)(C)c1ccc(OCc2ccc(C(=O)NN)o2)cc1	1.9	20	11%	2.5	0.1%	0.1%	1
COC(=O)CSc1nnc(SCc2ccc(Cl)cc2)s1	0.4	-2	17%	3.6	-4.7%	-0.1%	-7
CC(O)(c1ccc(F)c(F)c1)c1nc(-c2ccc(F)c(Cl)c2)cs1 (configuration not stated)	-0.3	·	·	·	0.9%	2.7%	·
Cc1cccc(CCNC(=O)C2CCC(=O)N2Cc2ccc(F)cc2)c1 (configuration not stated)	-0.1	-9	7%	3.6	0.3%	2.2%[38.3 µM]	-10
COc1ccc(OC)c(C2CC(=O)Nc3c2c(=O)[nH]c2nc4ccccc4n32)c1 (configuration not stated)	0.6	4	·	·	-6.2%	0.3%	·
Cc1nonc1C(=O)N/N=C/c1ccc([N+](=O)[O-])o1	2.7	-1	?	?	0.5%	2.5%	-6
COc1ccc(NC(=O)C2CCN(S(=O)(=O)c3ccc(N4CCCC4=O)cc3)CC2)c(OC)c1	-1.0	-20	9%	-1.3	-18%	0.2%	17
CCC(C(=O)NCc1ccncc1)c1ccccc1 (configuration not stated)	0.3	-19	10%	-2.5	·	-3.2%	2
CCC1CCCCN1C(=O)COc1cc(=O)n(C)c2ccccc12 (configuration not stated)	0.5	2	17%	3.8	-5.0%	3.3%	-1
Cc1ccccc1Cn1c(O)c(N=NC(=S)Nc2ccccc2F)c2ccccc21	0.3	-1	12%	16	1.7%	2.3%	3
Cc1ccc(C(=O)Nc2c(N)nc(SCC(=O)NCC3CCCO3)[nH]c2=O)cc1 (configuration not stated)	0.2	-4	-2%	-2.2	0.6%	1.5%	-2
COC(=O)c1cc(OC)c(OC)cc1NC(=S)N1CCCCC1	0.0	15	2%	4.3	3.3%	2.3%[38.3 µM]	3
CCn1c(C)c(CS(=O)(=O)c2ccccc2)[nH]c1=O	0.0	-4	25µM*	0.6	·	2.6%	-2
COc1cccc(CNC(=O)CSc2ccc(-c3ccccn3)nn2)c1	-0.8	0	10%	0.0	·	-1.9%	20
Cc1cc(NC(=O)CSc2nnc(-c3ccco3)n2Cc2ccccc2)no1	-0.3	9	-10%	-2.2	0.7%	1.4%	14
CC(C)NC(=O)NS(=O)(=O)c1cnccc1NC1CC2CCC1C2 (configuration not stated)	-0.3	13	-1%	1.1	-6.9%	-0.2%	-10
O=c1c2c3c(sc2n(Cc2cc(=O)n4ccccc4n2)c(=O)n1-c1ccccc1)CCC3	0.6	-4	·	·	-9.0%	0.6%	·
Cc1cc(S(=O)(=O)N2CCCC2)ccc1OCC(=O)NCc1ccccn1	0.1	-2	10%	-4.0	·	1.0%	-3
NC(=O)c1ccccc1OCC(=O)N1CCC(Cc2ccccc2)CC1	-0.6	2	·	·	-4.7%	0.0%	-19
Cn1c(SCC(=O)NCc2ccco2)nc2ccccc2c1=O	0.3	9	13%	0.5	-2.2%	0.3%	-1
C=CC[C@H](CC(=O)NCCO)C(=O)N[C@H](COC(=O)[C@H](CC=C)CC(=O)OC(C)(C)C)c1ccccc1	-0.7	6	·	·	1.6%	0.1%	·
Cc1cc(NC(=O)COC(=O)CCCOc2ccc(Cl)cc2C)no1	3.9	4	0%	0.0	-1.7%	2.4%	-14
Cn1cc(-c2nc3cnc(N4CCNCC4)nc3n(CCc3ccccc3)c2=O)c2ccccc21	·	·	40µM*	?	·	9.4%	·
O=C(NCCc1c[nH]c2ccccc12)c1cc(S(=O)(=O)N2CCCCC2)ccc1N1CCOCC1	-0.4	17	0%	-1.2	-16%	1.7%	-15
O=C(O)c1ccc(CSCc2ccccc2F)o1	-0.3	4	16%	-0.1	-0.3%	-0.2%	-9
COc1cc(C(=O)NC2CC3CCCC(C2)N3CC(=O)Nc2ccccc2)cc(OC)c1OC (configuration not stated)	-0.1	18	8%	5.7	2.3%	2.0%	11
CN(C)S(=O)(=O)c1ccc(N2CCCC2)c(C(=O)NCCc2ccc(F)cc2)c1	21	8	7%	·	-7.3%	-0.7%	4
COc1ccc(CCNC(=O)c2cnn(-c3ccc(F)cc3)c2C2CCN(C(=O)OC(C)(C)C)CC2)c(OC)c1	0.5	5	·	·	0.9%	-1.3%	·
CCn1c(SCC(=O)Nc2ccc(OCc3ccccc3)cc2)nnc1-c1ccco1	2.5	-16	-7%	-1.4	-2.5%	-2.7%	-8
Nc1nc(-c2ccccc2)c(-c2ccccc2)n1N	·	·	14%	6.7	?	0.2%	0
Cc1cc(NC(=O)CSc2ccc3nnc(-c4ccccc4)n3n2)no1	0.2	-4	-1%	-3.5	?	2.9%[38.3 µM]	19
COc1ccc(C(=O)Nn2cnnc2)c(OC)c1	0.0	9	13%	3.6	-0.7%	-0.8%	26
Cn1nccc1C(=O)Nn1cnnc1	-0.1	-2	14%	1.8	-7.0%	-0.4%	-6
Cc1ccccc1C(=O)NC1CC2CCCC(C1)N2Cc1ccc(Cl)cc1 (configuration not stated)	-0.2	3	5%	-10	0.8%	2.4%	7
O=C(CNC(=O)c1ccc(Br)o1)NCC1CCCCC1	-0.8	2	·	·	-1.9%	0.2%	5
COc1ccc(C2=NOC(C(=O)NC(C)(C)C)C2)cc1 (configuration not stated)	-0.6	-4	29%	-0.4	0.6%	5.4%[38.3 µM]	7
COc1ccc(CN2CCN(CC(O)Cn3c4ccccc4c4ccccc43)CC2)cc1 (configuration not stated)	0.2	37	-14%	-3.6	-9.4%	-1.0%	4
CCn1c(COc2ccc(C)cc2)nnc1SCC(=O)Nc1cc(OC)ccc1OC	3.0	-10	5%	1.5	5.5%	-2.4%	4
O=C(/C=C\Nc1ccccn1)c1ccccc1	-0.4	-8	-2%	6.0	-4.5%	0.3%	-17
COc1ccc(-c2ccc3c(c2)S(=O)(=O)c2cccc(C(=O)N4CCN(c5ccc(Cl)cn5)CC4)c2C3=O)cc1OC	-0.2	17	·	·	-8.5%	18%	·
O=C(Nc1ccc([N+](=O)[O-])cc1)c1cc(-c2ccccn2)nc2c(Cl)cccc12	0.9	1	-8%	-0.5	-1.3%	4.5%	5
CCN(CC(=O)Nc1ccc(NC(C)=O)cc1)C(=O)c1cc(S(=O)(=O)N2CCCCCC2)ccc1OC	0.2	-11	·	·	·	2.8%	-20
CN(C)/C=C(/C(=O)c1ccc(F)cc1)S(=O)(=O)c1ccc(F)cc1	1.7	-6	14%	1.0	·	0.0%	-10
O=C(NN1CCCCCC1)c1ccccc1F	0.1	-11	·	·	·	1.5%	·
Cc1[nH]c2ccccc2c1C(=O)CN1CCC2(CC1)OCCO2	-0.5	-2	4%	2.4	-0.7%	0.1%	-1
COc1ccccc1C(CNC(=O)CNC(=O)c1cccc(Cl)c1)N1CCCC1 (configuration not stated)	-0.7	5	·	·	·	5.3%	·
CCCCNC(=S)N(C)/N=C/c1ccc(OCc2ccc(C(=O)OC)cc2)c(OC)c1	0.4	7	10%	4.2	-1.6%	-2.4%	5
CC(C)Oc1ccccc1OCCN(C)C	-0.6	37	-54%	-1.1	0.6%	1.1%	6
Cc1cc(NC(=O)Nc2ccc(Cl)cc2)n(C(C)(C)C)n1	2.5	11	11%	7.5	-0.3%	-1.4%	-9
COc1ccc([C@H]2CC(=O)C=C(C#CC(C)(C)C)C2)cc1	2.7	4	·	·	-0.1%	4.7%	-11
C/C(=N\NC(=O)c1ccc(N/N=C(\C)c2ccc(O)cc2)cc1)c1ccc(O)cc1	0.1	2	7%	0.6	?	0.0%	6
Cc1ccc(-n2nc(C(=O)N3CCN(c4ccc(F)cc4)CC3)c(=O)n(C)c2=O)cc1	-0.6	8	·	·	1.5%	-1.0%	·

Brought forward from above: two compounds, followed by the next part.
SMILES	TRPML1 ag	TRPML1 inh	Sfp inh	Menin MLL FP FL	ClpP mod	PINK1 modulator	TRPV1 PAM
C/C(=N\NC(=O)c1ccc(N/N=C(\C)c2ccc(O)cc2)cc1)c1ccc(O)cc1	0.1	2	7%	0.6	?	0.0%	6
Cc1ccc(-n2nc(C(=O)N3CCN(c4ccc(F)cc4)CC3)c(=O)n(C)c2=O)cc1	-0.6	8	·	·	1.5%	-1.0%	·
O=C(NCCN1CCOCC1)c1cc(-c2cccs2)nc2ccccc12	0.0	-14	·	·	28µM*	-0.6%	·
O=C(COC(=O)c1cccnc1Cl)NCC1CCCO1 (configuration not stated)	-0.4	2	14%	-3.8	?	0.2%	-5
COc1cccc(CN2CC(C(=O)NC3(c4ccccc4)CC3)CCC2=O)c1 (configuration not stated)	-0.1	37	19%	·	-3.3%	0.0%	8
O=C(O)c1cnn2c1NC(c1ccc(F)cc1)CC2C(F)(F)F (configuration not stated)	0.9	26	22%	4.1	-2.6%	-0.4%	-13
O=S(=O)(Nc1cccc(-c2cn3cccnc3n2)c1)c1ccc(-c2ccccc2)cc1	-0.4	-11	2%	6.5	28µM*	1.2%	-6
